# Lassa entry inh: Lassa virus entry inhibition; 300,000 tested, 1.2% active; Lassa virus pseudotype entry inhibition, cell reporter; control for the full effect not named in the record; Potency, µM (doses to about 37.9 µM), inactives show at the top dose activity change, negative = inhibition, usual class: inhibitors; active means well fitted inhibition curve with a large enough effect; inconclusive means small, poorly fitted or top-dose-only effect, or effect the other way; inactive means flat fitted curve, though single readings scatter; tested in HEK293 cells; also: % is scaled to controls: 0 for no effect and ±100 for the full control effect; nearly all actives have a fitted effect of over 50% in size; luciferase read-out
# StopGo reporter: FMDV 2A StopGo reporter, luciferase signal; human cells with a luciferase reporter of 2A StopGo recoding; control for the full effect not named in the record; Potency, µM (series often up to 57.9 µM), without a hit: top-dose signal change, negative = less light; 410,000 tested, 1.2% active; AID 1159524; active = well fitted falling curve with a large enough effect; inconclusive = small, poorly fitted or top-dose-only effect; inactive = no such curve, though single readings can be large or run the other way; tested in HEK293T cells; also: % is scaled to controls: 0 for no effect and ±100 for the full control effect; nearly all actives have a fitted effect of over 45% in size; luciferase light after 4 h
# Cruzain noTriton: inhibitors of Trypanosoma cruzi cruzain without detergent; 200,000 tested, 2.3% active; purified cruzain, Z-FR-AMC fluorescence, no detergent; Potency, µM, for inactives: max response, negative = inhibition, usual class: inhibitors; active = well fitted curve in the direction sought with a large enough effect; inconclusive = small, poorly fitted or top-dose-only effect, or another doubt; inactive = no such curve, though single readings can be large; an effect the other way counts as inactive or inconclusive;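 also: plate controls were enzyme without inhibitor for no effect and buffer without enzyme for full effect; nearly all actives have a fitted effect of over 40% in size; top concentration of the series not given in the record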
# Target sequence (P25779 123-467 limits assumed): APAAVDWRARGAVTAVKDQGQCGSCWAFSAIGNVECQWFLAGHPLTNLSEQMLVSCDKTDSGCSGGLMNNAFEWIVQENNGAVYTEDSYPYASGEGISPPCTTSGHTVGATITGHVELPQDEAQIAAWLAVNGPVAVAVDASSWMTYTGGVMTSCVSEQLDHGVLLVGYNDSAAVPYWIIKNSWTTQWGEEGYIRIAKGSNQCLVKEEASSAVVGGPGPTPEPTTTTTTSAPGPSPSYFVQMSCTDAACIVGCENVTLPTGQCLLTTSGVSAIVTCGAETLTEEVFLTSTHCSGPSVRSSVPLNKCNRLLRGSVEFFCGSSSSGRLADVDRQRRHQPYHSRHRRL
#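 Detergent-free condition (0.00005% Triton X-100) in acetate buffer pH 5.5 with DTT. 1.5 nM enzyme and compound were pre-mixed 15 min, then 2 uM Z-FR-AMC substrate added; reaction progress from fluorescence change between first and third reads (60 s).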
# NS1 inh: inhibitors of influenza NS1 protein function. S. cerevisiae slowed by influenza A NS1, growth recovery by OD600. Potency, µM (top dose mostly 46.1 µM), for the others: at the top dose activity, positive = more growth. 270,000 tested, 0.4% active; also: actives are rising curves; nearly all actives have a fitted effect of over 50% in size
#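 S. cerevisiae expressing influenza A NS1, grown in glucose, washed, then diluted 1:100 into pH 6.0 -URA galactose medium with 23 nl compound. Growth recovery read as OD600; NS1-free strain serves as control.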
# Cruzain Triton: blocks cruzain activity in presence of Triton detergent | purified cruzain, Z-FR-AMC fluorescence, 0.01% Triton | Potency, µM, for inactives: max response, negative = inhibition, hits mostly inhibitors | 200,000 tested, 0.43% active | AID 1478; active = well fitted curve in the direction sought with a large enough effect; inconclusive = small, poorly fitted or top-dose-only effect, or another doubt; inactive = no such curve, though single readings can be large; an effect the other way counts as inactive or inconclusive;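 also: plate controls were neutral wells for no effect and buffer without enzyme for full effect; nearly all actives have a fitted effect of over 40% in size; top concentration of the series not given in the record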
#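 15 min RT preincubation of 1.5 nM cruzain with compound, then 2 uM Z-FR-AMC added; kinetic AMC fluorescence, 60 s delta. Triton X-100 0.01%, pH 5.5.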
# SARS PLP yeast: blocks SARS-CoV papain-like protease in a yeast assay | S. cerevisiae expressing SARS-CoV PLpro, growth rescue; control for the full effect not named in the record | 330,000 tested, 0.19% active | Potency, µM (top dose mostly 32.9 µM), for the others: at the top dose activity, positive = growth rescue; also: 0% is about no effect; nearly all actives have a fitted effect of over 55% in size; growth read by luminescence after 48 h
# Marburg entry inh: Marburg virus entry inhibition | 300,000 tested, 1.8% active | Marburg virus pseudotyped entry inhibition, cell reporter; control for the full effect not named in the record; about a third of the inactives were read at about 46 µM | Potency, µM (highest dose often 37.8 µM), inactives show top-dose activity change, negative = inhibition, usual class: inhibitors; active = well fitted inhibition curve with a large enough effect; inconclusive = small, poorly fitted or top-dose-only effect, or effect the other way; inactive = flat fitted curve, though single readings scatter; tested in HEK293 cells; about a fifth of its hits are not listed in these tables; also: % is scaled to controls: 0 for no effect and ±100 for the full control effect; luciferase read-out
# RE007 growth inh: less growth of the S. pombe RE007 Vpr strain. 360,000 tested, 0.21% active. S. pombe RE007 Vpr strain, BacTiter-Glo ATP luminescence, 24 h; control for the full effect not named in the record. Potency, µM (titrated, usually from 92.2 µM), without a hit: at the top dose activity change, negative = less growth; active = well fitted falling curve with a large enough effect; inconclusive = small, poorly fitted or top-dose-only effect; inactive = no such curve, though single readings can be large or run the other way;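 also: % is scaled to controls: 0 for no effect and ±100 for the full control effect; nearly all actives have a fitted effect of over 50% in size; the assay follows cell death caused by Vpr and the record does not say whether a fall means rescue or toxicity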
#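 Fission yeast strain RE007, carrying one chromosomally integrated HIV-1 vpr copy, was seeded at OD 0.01 in PMG+AL medium with 23 nL pinned compound. After 24 h at 30 °C and 99% humidity, viability was read by BacTiter-Glo luminescence.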
# Active calls of the source: *; ? = inconclusive; nt = no result given; [ ] = dose if it differs, or a comment. Unless noted, calls follow the shape of the dose curve; as a rule, active means well fitted rising curve with a large enough effect; inconclusive means small, poorly fitted or top-dose-only effect; inactive means no such curve, though single readings can be large or run the other way. Potency is read from the fitted curve at half-maximal effect.
SMILES,Lassa entry inh,StopGo reporter,Cruzain noTriton,NS1 inh,Cruzain Triton,SARS PLP yeast,Marburg entry inh,RE007 growth inh
CCCn1c2ccccc2c2cnn(CC(=O)OC)c(=O)c21,?,-14%,nt,-6%,nt,3%,5%,?
OCc1nc2ccc(Cl)cc2[nH]1,3%,0%,nt,1%,nt,0%,9%,-6%
C/C(=N/NC(=O)c1ccc(-c2ccccc2)cc1)c1cccc(O)c1,-8%[46.1 µM],-6%,nt,27%,nt,0%,2%[46.1 µM],-2%
C=CCn1c(SCc2c(C)noc2C)nc2ccccc2c1=O,?,-19%,3%,-65%,-1.8%,-9%,?,4%
CC(OC(=O)C1CSC2(C)CCC(=O)N12)C(=O)Nc1cccc(C#N)c1 (stereo not given),3%,-9%,nt,nt,nt,-4%,23%,1%
Cc1cccc(C(=O)Nc2cccc(S(=O)(=O)NCc3ccco3)c2)c1,?,47%[activator],nt,nt,nt,1%,11%,-1%
C=C1C(=O)OC2CC1C(O)CC(C)=CCCC(C)=CC(O)CC2C (stereo not given),?,7.9µM*,nt,nt,nt,nt,4µM*,-18%
Cc1cc(Nc2ccc(Cl)cc2)n(-c2cccc(Cl)c2)n1,8%,0%,-12%,-120%,-5.3%,-26%,?,23%
CCCNC(=O)CN1C(=O)c2c(c3ccccc3n2C)C1c1ccc(OC)cc1 (stereo not given),-3%[46.1 µM],-20%,?,nt,-4.2%,nt,nt,nt
Cc1c(Cl)cccc1-c1ccc(CNCCCSc2nnnn2C)o1,0%[46.1 µM],18%,-7%,nt,-9.3%,nt,0%[46.1 µM],nt
CCc1ccc(-c2nc(CN3CCCC(C(=O)O)C3)c(C)o2)cc1 (stereo not given),nt,-1%,-4%,1%,5.9%,0%,nt,18%
CS(=O)(=O)c1nc(S(=O)(=O)c2ccc(Cl)cc2)c(NCCCN2CCCC2=O)s1,nt,21%,nt,-7%,nt,1%,nt,-7%
O=C(NCC(=O)N1CCC2(CC1)NCCc1[nH]cnc12)c1ccc(F)cc1,nt,-8%,nt,8%,nt,3%,nt,1%
Cc1cc(NC(=O)CSc2nnc(CNC(=O)c3cccc(C(F)(F)F)c3)o2)no1,13%,-14%,nt,7%,nt,-3%,22%,1%
COc1ccc(C(=O)/C=C/c2cn(CC(O)CN3CCOCC3)c3ccccc23)cc1 (stereo not given),-18%,?,0%,0%,-10%,-5%,?,27%
OCc1cnc(SCc2ccccc2F)n1Cc1ccc(F)cc1,6%[46.1 µM],17%,-9%,nt,-2.2%,nt,nt,nt
COc1cccc(CN(C)C(=O)c2cccc(OC3CCN(C4CCCC4)CC3)c2)c1,0%,-12%,nt,-2%,nt,-1%,-41%,6%
COc1ccc(OCC(=O)N/N=C(\C)c2ccc(OC)cc2)cc1,?,0%,nt,nt,nt,-2%,-21%[46.1 µM],-14%
CCN1C(=O)[C@H]2[C@@H](c3ccc(OC)cc3)N3C(=O)CN(Cc4ccccc4)C(=O)[C@@]3(Cc3ccccc3)[C@H]2C1=O,nt,-8%,nt,14%,nt,-10%,nt,8%
CCCN(C(=O)c1ccccc1Cc1ccccc1)C1CCS(=O)(=O)C1 (stereo not given),-20%[46.1 µM],-3%,nt,nt,nt,-5%,17%,-9%
N#CCCN(Cc1cccnc1)S(=O)(=O)c1ccc(S(=O)(=O)NC2CCCCC2)cc1,-20%,25%,7%,-8%,0.3%,-1%,-5%,-15%
O=C(Nc1nnc(Cc2c[nH]c3ccccc23)s1)c1ccc(Cl)cc1Cl,9%,7%,25µM*,24%,-8.3%,0%,7%,0%
O=C(Nc1ccc(F)cc1Cl)c1cnc(N2CCOCC2)c2ccccc12,7%[46.1 µM],9%,?,nt,-7.5%,nt,nt,nt
COc1ccc(Oc2ncccc2NC(=O)c2cccc(C)c2C)cc1,?,-19%,nt,-6%,nt,0%,-18%,10%
COc1cc(CN(C)Cc2ccccc2)cc(OC)c1O,-5%,-12%,-15%,10%,4.4%,6%,?,-1%
COc1ccc(CCNc2nc(-c3cccc(NC(C)=O)c3)cs2)cc1OC,?,?,nt,21%,nt,0%,?,14%
COc1ccc(S(=O)(=O)N2CCC(C(=O)N[C@@H](C)C(=O)NCc3ccccc3OC)CC2)cc1,nt,-9%,nt,-14%,nt,-12%,nt,-5%
Cc1ccc(NC(=O)C2CCCN2S(=O)(=O)c2ccc3c(c2)CCCC(=O)N3)cc1Cl (stereo not given),-9%[46.1 µM],?,?,nt,-3.2%,nt,nt,nt
Cc1ccc(C(=O)CSc2nnc(CNc3ccc(F)cc3)o2)cc1,1%[46.1 µM],2%,nt,nt,nt,1%,?,7%
O=C(NCc1cccnc1)c1ccc(CS(=O)(=O)c2ccc(Cl)cc2)o1,?,-30%,-10%,5%,4.0%,2%,?,-1%
COc1ccc(CNS(=O)(=O)c2cnc(N)nc2)c(OC)c1,-6%[46.1 µM],-9%,-9%,nt,-0.1%,nt,nt,nt
CC(=O)Oc1ccc(C(=O)NC(C)CCc2ccccc2)cc1 (stereo not given),nt,4%,nt,13%,nt,14%,nt,-15%
CCOc1cc(Br)ccc1S(=O)(=O)N1CC(C)OC(C)C1 (stereo not given),8%,?,-7%,-85%,2.3%,0%,?,-10%
Cc1cccc(C)c1OCC(=O)N(Cc1ccc(Cl)cc1)CC1CCCO1 (stereo not given),-14%[46.1 µM],-10%,6%,nt,-7.1%,nt,?,nt
CC(C)(C)c1cc(C(=O)NCc2ccccc2)ccn1,-23%,?,-1%,-15%,4.3%,9%,-18%,6%
COC(=O)c1cc2c(=O)c3ccccc3oc2nc1/C=C/N(C)C,4%,7%,nt,-62%,nt,0%,-21%,1%
CC(=O)c1cccc(NC(=O)CN(C)S(=O)(=O)c2ccc3c(c2)CCC(=O)N3)c1,nt,0%,nt,1%,nt,-8%,nt,-4%
CC(C#N)Sc1nnc(Nc2ccccc2)s1 (stereo not given),1%[46.1 µM],33%[activator],nt,nt,nt,0%,?,-9%
CNc1nc(N)c([N+](=O)[O-])c(Nc2cccc(Cl)c2)n1,nt,0%,nt,-8%,nt,-1%,nt,8%
CCOC(=O)C1CCCN(c2cc(=O)n(Cc3ccc(F)cc3)c(=O)[nH]2)C1 (stereo not given),-2%,nt,13%,12%,8.8%,0%,1%,-5%
CCOC(=O)N=S(=O)(Oc1ccc([N+](=O)[O-])cc1)c1ccc(Cl)cc1 (stereo not given),?,3%,17%,2%,-9.7%,-10%,?,6%
Cc1ccc(-c2noc(CCC(=O)NCCCN3CCN(c4cccc(Cl)c4)CC3)n2)cc1,?,?,16%,-65%,-8.5%,1%,?,6%
COC(=O)[C@@H]1C[C@@]2(O)[C@H](O)[C@H](O)[C@H](O)C[C@H]2N1Cc1ccccc1OS(=O)(=O)c1ccc(C)cc1,nt,0%,0%,-8%,-0.6%,1%,nt,0%
CC(=O)N1CCN(C(=O)c2cccc(S(=O)(=O)Nc3ccc(C)cc3)c2)CC1,0%,1%,-10%,0%,1.7%,0%,13%,18%
COc1ccc(N2CCN(CCNC(=O)CCNS(=O)(=O)c3cccs3)CC2)cc1,10%,13%,-7%,0%,1.6%,-1%,?,-1%
CC1CC(C)CN(CCCNC(=O)c2nn(C)c3c2CS(=O)(=O)c2ccccc2-3)C1 (stereo not given),nt,-16%,nt,-16%,nt,-16%,nt,4%
CCN(CC)CCCN1C(=O)C(O)=C(C(C)=O)C1c1cccc(OC)c1 (stereo not given),nt,nt,10%,8%,0.2%,-2%,nt,nt
O=C(O)c1occc1CSc1ccccc1,3%,-2%,nt,-1%,nt,0%,-10%,-3%
CCOC(=O)C(=CNc1cc(C)nn1-c1ccc(C)cc1)C(=O)OCC,-4%,-23%,?,0%,-4.0%,14%,-24%,7%
O=C(COC(=O)c1cccnc1Cl)Nc1cc(S(=O)(=O)N2CCCCCC2)ccc1Cl,14%,?,nt,nt,nt,-1%,3%,23%
CC(C)CC(=O)NN(C)c1nc(-c2ccccc2)nnc1C(F)(F)F,?,-5%,6%,-9%,3.2%,?,-27%[46.1 µM],4%
COc1ccc(C)cc1S(=O)(=O)N1CCCC(C(=O)NCc2ccccn2)C1 (stereo not given),?,-8%,nt,0%,nt,0%,?,-3%
Cc1c(CCC(=O)NCCc2ccccc2F)c(=O)oc2cc(O)ccc12,-17%[46.1 µM],-10%,?,nt,-23%,nt,16%[46.1 µM],nt
Cc1cccc(/C(N)=N/OC(=O)c2ccoc2C)c1,?,2%,nt,-86%,nt,-14%,?,-20%
CN(CCOc1ccc(Cl)cc1)C(=O)c1cccc(S(=O)(=O)N2CCN(c3ccc(F)cc3)CC2)c1,?,?,nt,nt,nt,nt,7.1µM*,-25%
C/C(=N\NC(=O)c1cc(C)oc1C)c1ccc(N2CCOCC2)cc1,nt,10%,nt,nt,nt,-2%,1%[46.1 µM],1%
COc1ccc(NS(=O)(=O)c2ccc(F)cc2F)cn1,3%,-8%,nt,4%,nt,0%,7%[46.1 µM],-6%
Cc1noc(C)c1COc1ccccc1C(=O)N(C)Cc1ccc(F)cc1,?,-22%,nt,nt,nt,3%,3%,-10%
CCN1CCN(S(=O)(=O)c2cnc(Cl)c(Br)c2)CC1,-19%,-4%,-3%,0%,-0.4%,-6%,-11%,-6%
CCNC(=O)c1c(NC(=O)Cc2coc3cc(C)cc(C)c23)sc2c1CCCC2,3%[46.1 µM],-18%,-2%,nt,-1.8%,nt,-2%[46.1 µM],nt
# Other compounds
SMILES,Lassa entry inh,StopGo reporter,Cruzain noTriton,NS1 inh,Cruzain Triton,SARS PLP yeast,Marburg entry inh,RE007 growth inh
COc1ccc(-c2nn(C)c3sc(C(=O)N4CCOCC4)cc23)cc1OC,-8%,4%,12%,-9%,-0.3%,4%,?,0%
COc1ccc(Cl)cc1S(=O)(=O)N1CCN=C1C,nt,1%,0%,0%,-1.3%,7%,0%,-22%
O=C(COC(=O)C1CCCCC1)NCCc1ccccc1,3%[46.1 µM],10%,-6%,3%,-7.4%,12%,1%[46.1 µM],8%
Cc1ccc2oc(=O)n(CCOc3ccccc3)c2c1,5%,7%,nt,-11%,nt,2%,0%[46.1 µM],-15%

# This is a random part of the collection; overall some 4.8% were active at least once.
